# Source: PubChem BioAssay (several laboratories)
# PABP polyA inh: blocks human PABP binding to poly(A) RNA; P11940; fluorescence polarization; inhibition, % at 35 µM; hit rate 1% among 290,000; AID 2014;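 active = 50% or more with normal probe brightness, or confirmed in later tests; inconclusive = above 50% with abnormal brightness, or retests that disagree; inactive = below 50% or failed in later tests; about a fifth of its hits are not listed in these tables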;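 note: calls also rest on retests at 20 µM and on dose response follow-up; controls were probe without protein and protein plus probe with vehicle; some compounds called inactive have numbers as strong as hits; many hits fall short of the cut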
# CSC inhib: cancer stem cell inhibition; inhibition, % at 7.5 µM; cancer stem cell-like cells viability, luminescence; hit rate 1.1% among 300,000; AID 2717;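 active = mean at 75% or more and at least half the replicates too; inconclusive = mean and replicates disagree; tested in HMLE shEcad cells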;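 note: 0% = median of negative and 100% = median of positive control wells; the first replicate is given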
# MT1-MMP act inh: inhibitors of human MT1-MMP activation | hit rate 0.061% among 360,000 | AID 651647 | HT1080 RFP-PRO-GFP cells, GFP/RFP ratio fluorescence, overnight; percent of plate control window, DMSO zero | GFP/RFP ratio change, % at 20 µM;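 active = GFP/RFP ratio change of at least 30% with cell ATP level not reduced by more than half and red fluorescence within 50% of control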; note: strong numbers were not always called active
#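 Test system: HT1080 cells expressing an RFP-PRO-GFP fluorescent reporter construct / Compound dosing: single-point 20 µM compound, 1% DMSO / Schedule: cells overnight before dosing, compound overnight, 37 °C, 5% CO2 / Evaluation: GFP/RFP fluorescence ratio / Control set: DMSO and RFP-L50D-GFP cell wells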
# eIF4H inh: inhibitors of RNA binding by human eIF4H; hit rate 0.94% among 290,000; AID 2012; inhibition, % at 35 µM; eIF4H fluorescence polarization binding assay; Q15056;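 active = 50% or more with normal probe brightness, or confirmed in later tests; inconclusive = above 50% with abnormal brightness, or retests that disagree; inactive = below 50% or failed in later tests; about a fifth of its hits are not listed in these tables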;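 note: calls also rest on retests at 20 µM and on dose response follow-up; 0% = protein and probe with vehicle and 100% = probe without protein; strong numbers were not always called active; many hits fall short of the cut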
# HIV Env fusion: inhibitors of HIV Env-mediated cell fusion; HeLa-JRFL Env/CEM21 cell fusion, luciferase; inhibition, % at 12.3 µM; hit rate 1.1% among 360,000; AID 651610;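 active = mean replicate inhibition score of at least 50 and every replicate individually at or above 50; inconclusive = only one of the two criteria met; inactive = mean below 50 and not all replicates reaching 50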;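 note: 0% = plate neutral controls and 100% = maraviroc near 300 nM; one replicate is shown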
# Rce1 inh: yeast Ras-converting enzyme inhibition; Q03530; yeast membranes, quenched prenylated peptide cleavage fluorescence; calls only; hit rate 0.27% among 290,000; AID 2563;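 active = fall in fluorescence gain of 50% or more versus controls, with final raw signal at or below 3038400; inconclusive = same 50% fall but final raw signal above 3038400; inactive = fall in fluorescence gain under 50%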;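 note: plate controls were neutral control wells for no effect and wells lacking membranes for full effect; tested at 10 µM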
# Target sequence (Q03530 whole entry, looked up): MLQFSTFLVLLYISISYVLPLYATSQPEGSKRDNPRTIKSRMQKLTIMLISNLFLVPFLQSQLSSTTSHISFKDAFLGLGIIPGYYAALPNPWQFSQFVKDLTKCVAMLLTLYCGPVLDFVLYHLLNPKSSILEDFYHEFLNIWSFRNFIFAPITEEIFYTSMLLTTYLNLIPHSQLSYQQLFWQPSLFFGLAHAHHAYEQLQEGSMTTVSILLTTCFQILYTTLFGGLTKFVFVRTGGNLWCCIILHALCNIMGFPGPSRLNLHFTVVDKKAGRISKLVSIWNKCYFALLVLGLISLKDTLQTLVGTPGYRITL
# Yeast UUG start: modulators of start codon recognition fidelity in yeast; activity score, % at 18.7 µM; AID 602363; hit rate 0.13% among 350,000; S. cerevisiae UUG-firefly luciferase reporter, luminescence/redox ratio;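 active = replicate mean at a twofold rise or more, about +100% in these data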;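 note: firefly luciferase made from a UUG start codon reports start codon fidelity; reporter light over untreated wells divided by growth signal over untreated wells; some hits fall short of that in this replicate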
# MT1-MMP act inh RFP: also measured in MT1-MMP act inh; calls as there; RFP signal change, %; measured here: RFP expression control read;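 0 = vehicle wells; hits needed this value within 50% of zero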
# Numbers without * were called inactive; i = inactive; u = inconclusive; x = no result given; & = joins results of further samples.
SMILES,PABP polyA inh,CSC inhib,MT1-MMP act inh,MT1-MMP act inh RFP,eIF4H inh,HIV Env fusion,Rce1 inh,Yeast UUG start
COc1ccc(O[C@H]2C=C[C@@H](c3ccccc3)O[C@@H]2CO/N=C(\C)CCN2CCc3nc(-c4ccccc4)c(-c4ccccc4)cc3C2)cc1,2,47,x,x,33,x,i,x
Cn1c2ccccc2c2nnc(N/N=C/c3ccc(O)cc3)nc21,x,-4,7,1,x,7,i,-3
Cc1ccsc1CN(C)Cc1nc(C2CC2)no1,-6,-3,-2,-1,-10,10,i,x
CC1CN(CCOc2ccc(Cl)cc2Cl)CC(C)O1 (stereo unspecified),5,19,-10,-4,-9,10,i,-6
CC(C)Nc1ccc(C(CC(N)=O)NC(=O)c2ccccc2)cc1[N+](=O)[O-] (stereo unspecified),-6,9,7,4,-8,37,i,-11
COc1ccccc1Nc1nc(-c2sc(NC(=O)c3ccc([N+](=O)[O-])cc3)nc2C)cs1,3,15,x,x,-3,x,i,x
CN(C)CCCn1cnc2c1c(=O)[nH]c(=O)n2Cc1ccccc1,3,-6,4,2,-8,-25,i,-15
O=C1CCCN1CN(C(=O)c1ccc2c(c1)OCO2)c1cccc(Cl)c1,-6,-7,2,2,1,7,i,-5
CCCCN1C2=NCCCN2c2ccccc21,-5,-4,1,2,-4,-89,i,-10
Cc1ccc(C(=O)CSc2nnnn2C(C)C)c(C)c1,5,0,1,1,-8,-3,i,-63
Cc1ccccc1NC(=O)CSC1=NCCN1,10,-15,7,7,0,-20,x,x
Cc1ccc(N2CC(C(=O)N3CCC(C(=O)Nc4nnc(C(C)C)s4)CC3)CC2=O)cc1 (stereo unspecified),3,-15,-2,1,3,7,x,2
CCc1noc(C)c1C(=O)OCC(=O)NCCc1ccc(OC)cc1,x,x,-1,3,x,-3,x,-4
Cn1c2ccccc2c2ncn(CCC3=CCCCC3)c(=O)c21,8,50,-2,-6,-12,-27,i,-4
C[C@H](CO)N1C[C@H](C)[C@H](CN(C)C(=O)c2ccccc2)Oc2cc(Br)ccc2S1(=O)=O,x,x,4,3,x,7,x,-6&2
CCOc1ccc(NC(=O)CSc2nnc(C3CC3)n2N)cc1,-6,-6,-2,1,-8,x,i,x
COc1ccc(C2CC(=O)c3c(ccc4ccccc34)N2)cc1OC (stereo unspecified),-1,-1,1,2,-2,x,i,19
O=C(Nc1ccc(Br)cc1)c1cc([N+](=O)[O-])cc([N+](=O)[O-])c1,6,28,5,-6,9,-2,i,3
O=C(NCCc1ccccc1)c1nnc(CS(=O)(=O)c2ccccc2)o1,-3,-4,-2,0,-4,-14,i,-23
Cc1cc(C)c2oc(-c3ccc(C)c(NC(=S)NC(=O)c4cccs4)c3)nc2c1,-2,x,5,4,-3,x,i,-7
Cc1cc(C(=O)N/N=C/c2ccco2)n[nH]1,-2,8,6,9,2,-9,i,x
CC1(NC(=O)/C=C/c2nc3ccccc3s2)CCS(=O)(=O)C1 (stereo unspecified),x,6,-7,1,x,x,x,-31
CCOc1ccc(N(C)S(=O)(=O)c2cnc[nH]2)cc1,-5,-1,-2,-2,-1,-4,i,-8
C=CCNC(=S)Nc1ccc(N(C)C)cc1,4,-1,0,6,-5,-15,i,x
COc1ccc(C(C(=O)NC(C)(C)C)N(C(=O)CCC(=O)Nc2cc(C)on2)c2cccc(C)c2C)cc1 (stereo unspecified),-1,x,-4,-4,2,-5,i,8
COc1ccc(-c2nnc(N(C)C(=O)c3cccnc3)s2)cc1,4,-3,-1,-2,5,-36,i,-15
COC(=O)C(C)Sc1nc2c(c(=O)n(C)c(=O)n2C)n1CCC(C)C (stereo unspecified),3,7,4,3,-5,x,i,x
CC(C)Cn1c(SCC(=O)N2CCN(C(=O)c3ccco3)CC2)nc2ccccc2c1=O,-6,x,-7,0,2,-6,i,x
C=C1c2ccccc2NC(=O)N1c1ccc(OC)cc1,-9,4,1,5,-1,-5,i,x
Cc1cc(SCc2ccc(Cl)c(Cl)c2)nc(=O)[nH]1,-2,-3,0,-2,-7,-5,i,-4
CCNC(=O)NC(=O)C(C)OC(=O)C1CCN(S(=O)(=O)c2ccccc2F)CC1 (stereo unspecified),5,-1,5,7,5,14,i,x
Cc1cccc(CC(=O)NC2CCN(C)CC2)c1,10,x,4,6,4,-67,i,-5
C=CCSc1n[nH]c(-c2ccc(OC)cc2)n1,1,12,4,3,3,-43,i,5
CC(C)CC(OC(=O)c1cccs1)C(=O)NCc1ccco1 (stereo unspecified),7,-8,-10,3,40,-26,i,-22
CC(C)CN(CCCNC(=O)CN1N=C(c2ccc(Cl)cc2)CCC1=O)CC(C)C,4,12,-3,4,-5,8,i,9
NNC(=O)C=C1CCN(c2ncc(C(F)(F)F)cc2Cl)CC1,-7,x,10,4,-14,-3,i,-6
COc1ccc(CNC(=O)COC(=O)CN2C(=O)C3CCCCC3C2=O)cc1 (stereo unspecified),x,x,-2,7,x,4,x,-15
Nn1c(-c2cccc(Br)c2)n[nH]c1=S,0,x,3,-3,-6,x,i,-13
N/C(=N\OC(=O)CCCc1ccccc1)c1ccccc1Cl,-1,6,-2,2,0,-12,i,-8
CCN(C(=O)COc1ccccc1)c1nnc(-c2cccnc2)s1,-4,1,-1,-2,6,-12,i,22
CCn1c(=O)cc(SCC(=O)NCCCN2CCC(C)CC2)c2ccccc21,-6,4,3,7,-4,1,i,x
Cc1cc(C)cc(OCC(=O)Nc2ccc(F)cc2)c1,-4,5,4,1,-4,-67,i,-18
CCCCOC(=O)c1ccc(NC(=S)NC(=O)c2c(Cl)cnn2CC)cc1,1,-8,-8,-9,7,13,i,-8
N#CC(C#N)=Cc1c[nH]c(=O)c(C#N)c1Nc1ccccc1,x,6,-7,4,x,-7,i,-9
CC(=O)N1CCCC(N2CCN(c3cccc(C(F)(F)F)c3)CC2)C1 (stereo unspecified),-5,11,3,6,12,8,i,-5
CCOC(=O)c1nnn(-c2nc(OC)nc(N(C)C)n2)c1-c1ccccc1,2,8,-12,-4,-5,-1,i,-8
O=[N+]([O-])c1cc([N+](=O)[O-])c(Oc2ccccc2F)cc1NN1CCCCC1,10,-8,-1,-3,5,30,i,-6
CCOc1ccc(-c2nc(CSCC(=O)N3CCN(c4cccc(OC)c4)CC3)c(C)o2)cc1,7,16,2,-29,-2,x,i,-16

# In the list so far, these contain bromine:
SMILES,PABP polyA inh,CSC inhib,MT1-MMP act inh,MT1-MMP act inh RFP,eIF4H inh,HIV Env fusion,Rce1 inh,Yeast UUG start
C[C@H](CO)N1C[C@H](C)[C@H](CN(C)C(=O)c2ccccc2)Oc2cc(Br)ccc2S1(=O)=O,x,x,4,3,x,7,x,-6&2
O=C(Nc1ccc(Br)cc1)c1cc([N+](=O)[O-])cc([N+](=O)[O-])c1,6,28,5,-6,9,-2,i,3
Nn1c(-c2cccc(Br)c2)n[nH]c1=S,0,x,3,-3,-6,x,i,-13

# New compounds follow
SMILES,PABP polyA inh,CSC inhib,MT1-MMP act inh,MT1-MMP act inh RFP,eIF4H inh,HIV Env fusion,Rce1 inh,Yeast UUG start
COc1ccccc1N1CCN(C(=O)c2ccc3c(=O)n(Cc4ccco4)c(=S)[nH]c3c2)CC1,-4,4,3,-7,0,-7,i,6
CN(C)C(=O)CCc1ccc2c3c([nH]c2c1)[C@]1(C)[C@@H](C(=O)N2CCOCC2)C[C@H](CC(=O)NCCCn2ccnc2)C(=O)N1CC3,x,x,1,3,x,-2,x,-1
C=CCNC(=O)c1ccc2nccnc2c1,-2,x,2,0,2,11,i,-16
Cc1cc(C#N)c(C)n1-c1cc(C(F)(F)F)ccc1N1CCOCC1,6,-16,-8,-4,12,x,i,-2
CCC(C)C(NC(N)=O)C(=O)Nc1ccc(C)c(Cl)c1 (stereo unspecified),-2,-3,1,0,-8,1,i,x
S=c1[nH]nc(-c2ccc3ccccc3n2)o1,25,x,2,3,-6,x,i,-16
CCC(C)(C)NC(=O)C(c1ccncc1)N(C(=O)c1sc(C)nc1C)c1ccc(C)cc1 (stereo unspecified),-9,14,-1,-3,-11,-12,i,x
COc1ccc(OC(=O)Cc2cccc3ccccc23)cc1,-16,5,-1,3,-22,-18,i,-1
CC(O)(c1ccc(F)c(F)c1)c1nc(-c2ccncc2)cs1 (stereo unspecified),x,x,-3,-19,x,u,x,-13
Cc1nc2nc(SCc3ccccc3)[nH]n2c(=O)c1CCC(C)C,5,2,1,-5,-13,-13,i,-18
COc1cc(/C=C2/SC(=O)NC2=O)ccc1OCc1ccccc1,4,26,15,-7,17,-4,i,-3
O=C(NCc1ccncc1)c1cn(-c2ccccc2)nc1-c1cccnc1,7,x,3,4,-4,18,i,x
COc1ccc(-c2cn3ccc4ccccc4c3n2)cc1,-1,-3,4,1,-1,x,i,-27
O=C(NCc1ccccc1)c1cc[n+](CC(=O)c2cccs2)cc1,14,-2,-2,0,-16,19,i,-3
O=C(NCc1ccc2c(c1)OCO2)c1ccc2snnc2c1,2,3,0,3,-2,x,i,-7
O=C1C=C(NCCNc2c(F)c(F)c(CO)c(F)c2F)CCC1,-5,-1,-4,3,-1,x,i,-3
CC1CCC(C(=O)NC(C(=O)NCc2ccccn2)C(C)C)CC1 (stereo unspecified),1,x,6,11,10,-65,i,-10
O=C(CS(=O)CC(=O)N(CC(=O)NC1CCCC1)C1CCCCC1)Nc1ccc(F)cc1 (stereo unspecified),-2,-7,3,0,3,27,i,2
CCOC(=O)c1ccc2nc3c(cc2c1)CCS3,-3,7,3,2,-13,-10,i,-19
CCCCOc1ccc(NC(=O)CSCC(=O)OCC)cc1,1,-12,1,5,-8,-19,i,-4
O=C(COc1ccccc1F)OCC(=O)c1ccc([N+](=O)[O-])cc1,x,0,-4,-2,x,x,x,-17
O=C(O)c1ccc(Nc2ncnc3ccccc23)cc1,8,-18,-3,-1,-2,-4,i,2
CC(C)n1c(Nn2cnnc2)nc2ccccc21,-10,-3,0,5,-15,x,i,-16
C=CCc1c(C)[nH]c(=S)c(C#N)c1C,27,3,-3,-4,-1,x,i,-2
COC(=O)c1cccc(NC(=S)N2CCOCC2)c1,1,2,1,3,-2,-22,i,-19
Cc1nc2c(OCc3ccc(Cl)cc3Cl)cccn2c1N(C)CC1CC1,x,x,6,-25,x,30,x,-25
CC(=O)c1cccc(NC(=S)NC(=O)c2ccc(C)cc2)c1,-4,-7,0,-7,-2,-80,i,x
C=CCC1Cc2c(Br)cccc2C(CC=C)N1 (stereo unspecified),2,7,-2,4,4,4,i,x
O=C(O)CCC(=O)N1N=C(c2c(-c3ccccc3)c3cc(Cl)ccc3[nH]c2=O)CC1c1cccs1 (stereo unspecified),-7,-14,-11,-7,2,10,i,x
COc1ccccc1NC(=O)Cc1nnc(SCC(=O)c2ccc(F)cc2)n1C,-15,-13,3,4,-1,-3,i,-11
COc1cc(NC(=O)c2cc(-n3cnnc3)ccc2Cl)cc(OC)c1,-5,-3,-1,0,-9,x,i,3
O=C(NCc1ccccc1)C(c1cccnc1)N(C(=O)c1ccccn1)c1cccc(F)c1 (stereo unspecified),8,9,-3,-1,4,4,i,-1
C[C@H](NC(=O)c1nc[nH]c1C(=O)N[C@@H](CCCCNC(=O)OC(C)(C)C)C(=O)OC(C)(C)C)C(=O)OC(C)(C)C,9,-4,-5,-9,6,-45,i,-4

# This is a random part of the collection (roughly 3% active in at least one column).
